From PubChem BioAssay
Rango complex inh: Rango-importin beta binding inhibition | Q14974 | Rango CFP/YFP FRET sensor + importin beta, 45 min | hit rate 0.031% among 340,000 | AID 540263 | Potency, µM (doses to about 92.2 µM), for inactives: top-dose inhibition of complex formation; active = rising FRET ratio curve, often small or poorly fitted; inconclusive = mostly compound fluorescence or quenching in the first reads; inactive = flat curves in all reads;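 further: potency means the concentration at half of the fitted maximal effect; 0% = DMSO wells and 100% = buffer wells lacking importin beta; nearly all actives have a fitted effect of over 15% in size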
Target sequence (Q14974 whole entry, looked up): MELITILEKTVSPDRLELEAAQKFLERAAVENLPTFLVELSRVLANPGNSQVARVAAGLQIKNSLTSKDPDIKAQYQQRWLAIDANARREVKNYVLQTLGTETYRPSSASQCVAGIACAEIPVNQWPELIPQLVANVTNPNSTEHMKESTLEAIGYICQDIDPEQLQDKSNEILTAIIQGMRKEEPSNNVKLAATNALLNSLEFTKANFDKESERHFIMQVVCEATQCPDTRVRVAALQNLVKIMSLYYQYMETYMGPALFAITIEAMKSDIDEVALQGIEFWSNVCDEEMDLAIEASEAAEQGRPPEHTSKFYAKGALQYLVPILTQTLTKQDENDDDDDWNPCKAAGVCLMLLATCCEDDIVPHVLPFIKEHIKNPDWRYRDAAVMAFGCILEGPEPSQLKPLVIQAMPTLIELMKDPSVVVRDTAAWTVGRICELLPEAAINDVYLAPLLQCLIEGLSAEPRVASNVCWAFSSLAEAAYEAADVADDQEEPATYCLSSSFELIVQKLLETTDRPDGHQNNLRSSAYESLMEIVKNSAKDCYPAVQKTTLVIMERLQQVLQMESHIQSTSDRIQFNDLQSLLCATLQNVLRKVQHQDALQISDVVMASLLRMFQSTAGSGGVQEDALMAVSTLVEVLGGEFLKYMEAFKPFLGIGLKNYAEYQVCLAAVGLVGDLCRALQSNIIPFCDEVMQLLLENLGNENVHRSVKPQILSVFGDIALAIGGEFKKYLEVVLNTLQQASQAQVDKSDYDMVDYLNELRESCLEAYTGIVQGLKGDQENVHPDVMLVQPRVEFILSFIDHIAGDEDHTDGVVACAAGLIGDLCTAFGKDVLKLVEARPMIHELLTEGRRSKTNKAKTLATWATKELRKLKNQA
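Inhibition scored from the CFP 486 nm/YFP 530 nm FRET ratio 45 min after adding 0.125 microM importin beta to 50 nM Rango biosensor preincubated 5 min with compound (room temperature, PBS with DTT, Tween-20, BSA). No-importin wells as positive control.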
GLA inh pH 4.5: inhibitors of human alpha-galactosidase A at pH 4.5; P06280; 230,000 tested, under 10 active; AID 1467; activity change, negative = inhibition, % at 105 µM; purified enzyme, 4-MU-alpha-Gal fluorescence, pH 4.5; inconclusive = small, poorly fitted or top-dose-only inhibition, or a rising curve; inactive = flat fitted curve, though single readings scatter; no compound was filed as active;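 further: 0% = full activity with enzyme and -100% = basal without enzyme; dose as in the result columns while the protocol names 77 µM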
Rango dissoc inh: inhibitors of RanGTP-induced Rango-importin beta complex dissociation | AID 540253 | hit rate 0.071% among 340,000 | Biochemical FRET Rango-importin beta, RanGTP-induced dissociation | Potency, µM (series often up to 46.1 µM), for inactives: at the top dose activity change, negative = inhibition; active means falling FRET ratio curve, often poorly fitted, with flat reads before Ran was added; inconclusive means other falling curves, or compound fluorescence or quenching; inactive means flat or rising ratio curve;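 further: potency means the concentration at half of the fitted maximal effect; % of control where 0% means no effect; nearly all actives have a fitted effect of over 45% in size; -100% = wells without RanGTP and RCC1; the record marks most hits as doubtful in a second field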
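FRET read at 45 min, room temperature: inhibitors block the CFP/YFP signal rise when RanGTP (0.6 uM Ran, 2 mM GTP, 0.2 uM RCC1) frees Rango (0.1 uM) from importin beta (0.25 uM). Pre-read after 5 min compound exposure flags interference.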
miR-21 reporter: miR-21 reporter, rising signal | HeLa miR-21 FLuc reporter, luciferase, 48 h | Potency, µM (highest dose often 38.3 µM), inactives show at the highest dose reporter change, positive = more light | 340,000 tested, under 10 active | AID 2288; active = well fitted rising curve with a large enough effect; inconclusive = small, poorly fitted or top-dose-only effect; inactive = no such curve, though single readings can be large or run the other way;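 further: % of control where 0% means no effect; miR-21 action dims this reporter so a rising signal means less miR-21 action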
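Using DMEM plus 10% FBS, HeLa miR-21-FLuc cells are incubated with test compounds (final up to about 40uM) for 48 hours; firefly luciferase signal is then imaged following reagent-mediated lysis.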
Starred values were filed as active, the others as inactive; ? = inconclusive; / = not tested or not shown; & = joins results of further samples; [ ] = another dose, or the depositor's remark.

Preview:
SMILES	Rango complex inh	GLA inh pH 4.5	Rango dissoc inh	miR-21 reporter
Cc1nnc(SCC2=C(C(=O)O)N3C(=O)C(NC(=O)Cn4cnnn4)C3SC2)s1 (stereo unspecified)	0.9%	/	4%	0%
O=C1c2ccccc2NC(c2ccc(Cl)cc2Cl)N1O (stereo unspecified)	2.5%	4	-1%	29%
Cc1ccc2nc(-c3ccncc3)c(NC3CCCC3)n2c1	?	-3	-28%	-3%

The whole of this part (from the top)
SMILES	Rango complex inh	GLA inh pH 4.5	Rango dissoc inh	miR-21 reporter
Cc1nnc(SCC2=C(C(=O)O)N3C(=O)C(NC(=O)Cn4cnnn4)C3SC2)s1 (stereo unspecified)	0.9%	/	4%	0%
O=C1c2ccccc2NC(c2ccc(Cl)cc2Cl)N1O (stereo unspecified)	2.5%	4	-1%	29%
Cc1ccc2nc(-c3ccncc3)c(NC3CCCC3)n2c1	?	-3	-28%	-3%
CC(=O)c1ccccc1NC(=O)COC(=O)/C=C/c1ccc(OC(F)F)cc1	0.0%	/	-4%	/
Cc1ccc(S(=O)(=O)NCc2ccc(C(=O)N3CCN(c4ccc([N+](=O)[O-])cc4)CC3)cc2)cc1	?	/	2%	25%
CC(=O)N1CCSc2ccc(S(=O)(=O)NCCc3ccc(Cl)cc3)cc21	1.5%	/	16%	18%
CC1CCN(c2ccc(C(=O)N3CCOCC3)cc2[N+](=O)[O-])CC1	-0.8%	4	-16%	-12%
COc1cccc(NC(=O)CSc2nc3c(oc4ccccc43)c(=O)[nH]2)c1	0.8%	1	2%	-26%
O=c1oc2ccccc2c2[nH]ccc12	0.2%	3	-5%	11%
Cc1cccc(-n2nc3c(c2NC(=O)C2CC2)CS(=O)(=O)C3)c1C	3.0%	/	9%	0%
C=CCSc1n[nH]c(=O)n1-c1cccc(C(F)(F)F)c1	-0.6%	0	-14%	-1%
CCCC(=O)Nc1cc(C)cn(Cc2c(F)cccc2Cl)c1=O	2.8%	/	2%	-2%
O=C(/C=C/c1ccc(O)c(O)c1)OC1C(O)CC(OC(=O)/C=C/c2ccc(O)c(O)c2)(C(=O)O)CC1O (stereo unspecified)	?	-14	?	-2%
COC(=O)c1ccc(CSc2nc(N)cc(N)n2)cc1	-1.7%	4	-2%	-27%
Nc1nc(NCc2ccc(Cl)cc2)nc(NCCO)c1[N+](=O)[O-]	2.0%	-4	14%	-11%
COc1ccccc1C1CC(c2cccc(NS(C)(=O)=O)c2)=NN1S(=O)(=O)c1ccccc1 (stereo unspecified)	?	/	-18%	-9%
Cc1cc(/C=C2/C(=O)N(C)C(=S)N2C)ccc1N1CCCC1	?	-5	?	-53%
O=C(C1CC1)N1N=C(c2ccccc2)CC1(O)C(F)(F)F (stereo unspecified)	-4.3%	/	25%	1%
CCn1c(N)c(Br)c(=O)[nH]c1=O	2.1%	10	20%	0%
CN1C(=O)N(CC(=O)N2CCN(S(=O)(=O)/C=C/c3ccccc3)CC2)C(=O)C12CCCCC2	1.5%	/	-27%	/
CCS(=O)(=O)NCCCc1ccccc1	-0.4%	-3	-11%	2%
COCCN(CCOC)C(=O)CN1C(=O)NC(Cc2c[nH]c3ccccc23)C1=O (stereo unspecified)	-0.4%	/	12%	0%
Cc1cc(C)c(S(=O)(=O)N2CCCC(C(=O)NCCC3=CCCCC3)C2)c(C)c1 (stereo unspecified)	-2.8%	-18	1%	1%
Cc1ccc(S(=O)(=O)Nn2c(O)c(C=C3N=c4ccccc4=N3)sc2=S)cc1	-0.7%	-13	24%	-4%
CCOC(=O)Cc1nnc(NC(=O)CSc2nncn2C)s1	-7.9%	-4	-1%	-4%
More structures.
SMILES	Rango complex inh	GLA inh pH 4.5	Rango dissoc inh	miR-21 reporter
O=C(CC1C(=O)NCCN1C1CCCC1)NCc1cccc(OC(F)(F)F)c1 (stereo unspecified)	-1.7%	/	-5%	-6%
CNc1nc(-c2ccc3c(c2)CCN3C(=O)c2ccc(F)cc2)cs1	2.7%	?	-9%	-30%
O=[N+]([O-])c1cccc(S(=O)(=O)c2cccc([N+](=O)[O-])c2)c1	0.0%	1	0%	-1%
Cc1cc(NS(=O)(=O)c2ccc(NC(=O)CSc3nnc(-c4ccco4)n3Cc3ccco3)cc2)nc(C)n1	-3.2%	1	5%	-4%
CC(=O)Nc1ccccc1OC(C)C(=O)NC(C)c1ccc(F)cc1 (stereo unspecified)	4.8%	-6	-4%	-6%
O=C(CSc1ccc(Cl)cc1)NNC(=O)c1ccncc1	0.5%	/	-12%	/
COc1ccc(CN2CCN(C(=O)c3ccco3)CC2)cc1OC	15%	4	22%	2%
Cc1ccc(C)n1NC(=O)c1ccccc1O	0.0%	-5	-9%	-5%
O=C(NCCCSc1ccccc1)c1cc(Cl)ccc1O	2.3%	/	-1%	3%
C=C(C)CSc1nc(C)c(Cc2ccccc2)c(=O)[nH]1	-0.3%	-1	14%	0%
Cc1ccc(-n2c(-c3ccncc3)nnc2-c2cccs2)cc1	3.6%	/	11%	/
CCOC(=O)NC(=O)C(/C=N/c1sccc1C(=O)OC)=C(\C)O	2.6%	8	-3%	1%
COc1ccccc1N1CCN(C(=O)C2CCN(C(=O)c3ccccc3C)CC2)CC1	-1.6%	/	-16%	5%
CC(=O)c1ccc(N2CCN(C(=O)COc3ccccc3F)CC2)c(F)c1	1.0%	0	-15%	-6%
COc1cccc(-c2nnc(SC(C(=O)c3c[nH]c4ccccc34)c3ccccc3)n2C)c1 (stereo unspecified)	0.0%	-7	-13%	18%
O=C(N/N=C/c1ccc(N2CCOCC2)o1)c1cccc(C(F)(F)F)c1	-0.3%	-5	-14%	-9%
Cc1cc(C)c2nc(C(F)(F)F)nc(NCCCN3CCCC3=O)c2c1	-0.4%	-1	5%	1%
CCCCn1cnc2cc(NCc3ccncc3)ccc21	?	-3	-9%	-5%
COc1ccc(NC(=O)CN(C)C(=O)Cc2ccc(S(=O)(=O)N3CCOCC3)s2)cc1	6.4%	/	16%	/
CCOC(=O)C1CCN(C(=O)CN2C(=O)COc3ccc(C(C)(C)C)cc32)CC1	-1.1%	/	3%	-1%
Cc1ccc(Nc2nc(NCc3ccco3)c3ccccc3n2)cc1	3.3%	-1	0%	27%
NNC(=O)c1ccc(N2CCCCCC2)c([N+](=O)[O-])c1	0.0%	0[21.1 µM]	0%	21%
CCOc1ccc(CC(=O)N/N=C(\C)c2cccnc2)cc1OCC	-1.0%	/	18%	-3%
CC(=O)c1ccc(COC(=O)c2cc3ccccc3oc2=O)cc1	-3.9%	/	-10%	-35%
CC1CCC(=O)N(CCSc2ccccc2)CC1 (stereo unspecified)	1.1%	/	0%	-32%
(list continues)
SMILES	Rango complex inh	GLA inh pH 4.5	Rango dissoc inh	miR-21 reporter
COc1cc(S(=O)(=O)N2CC(=O)Nc3ccccc32)ccc1NC(C)=O	-3.5%	/	?	-5%
O=C(N=C1SC2CS(=O)(=O)CC2N1c1cccc(Cl)c1Cl)C1CCCO1 (stereo unspecified)	-2.4%	/	0%	1%
COc1ccc(NC(=O)C2=C(C)NC(=O)NC2c2cccc(OC)c2OC)c(OC)c1 (stereo unspecified)	1.2%	3	12%	-6%
COC(=O)c1c(C)[nH]c(C(=O)OCC(=O)N2c3ccccc3NC(=O)C2(C)C)c1C	?	-3	-9%	-1%
CN(C)S(=O)(=O)c1cccc(C(=O)Nc2cc(Cl)cc(Cl)c2)c1	-0.1%	2	-20%	-8%
Fc1ccc2nc(Nc3nc4cc5c(cc4s3)OCCO5)sc2c1	?	-5	17%	-48%
Cc1ccc(-c2nnc3sc(C4COc5ccccc5O4)nn23)cc1 (stereo unspecified)	-0.3%	-9	0%	-7%
Cc1cc(C(=O)COC(=O)c2ccc3c(c2)OCO3)c(C)n1CC1CCCO1 (stereo unspecified)	-1.1%	5	19%	-56%
O=[N+]([O-])c1cccc2nc3ccccc3c(NCCCn3ccnc3[N+](=O)[O-])c12	-0.3%	/	?	/
O=C1N=C(N2CCOCC2)S/C1=C\c1ccc(-c2ccccc2Cl)o1	?	-18	?	-9%
COc1cccc(N2[C@@H](CC(C)=O)c3ccc(/C=C/C(C)=O)cc3S2(=O)=O)c1	3.1%	/	-1%	/
COc1ccc(CN2CCN(C(=O)c3cc(C4CC4)nn3-c3ccccc3)CC2)cc1F	1.7%	/	-1%	/
Cc1ccc[n+](/C(=C\C(=C=[N-])C#N)C(=O)c2ccc(Cl)cc2)c1	1.9%	-1	14%	-16%
CCc1cc(=O)oc2c(CNCc3ccc(OC)cc3OC)c(O)c(Cl)cc12	?	/	?	-2%
COc1cccc(NC(=S)N2CCC(N(C)CC3CCCO3)CC2)c1 (stereo unspecified)	-1.9%	11	-19%	-7%
COc1c(C)cc(Br)cc1C(=O)Nc1ccc(S(N)(=O)=O)cc1	-2.2%	0	-9%	3%
Cc1ccc2c(Cl)c(C(=O)N/N=C/c3cccn3C)sc2c1	0.3%	5	9%	-6%
Fc1ccccc1-c1nc(NCc2ccccc2)c2ccccc2n1	-0.9%	-18	3%	-5%
Cc1cccc(OCC(=O)N/N=C\c2cccn2C)c1C	-3.4%	3	10%	2%
COCc1cc(C(C)=O)ccc1OCC(=O)Nc1ccc(NC(C)=O)cc1	2.0%	-15	3%	3%
COc1ccccc1C(=O)NCC(=O)N1CCN(S(=O)(=O)c2ccccc2C(F)(F)F)CC1	2.9%	/	10%	/
C=CCNc1cc(F)ccc1S(=O)(=O)NCC=C	-2.3%	/	-6%	/
c1ccc2c(Cn3ccnc3)cccc2c1	-1.9%	/	13%	-19%
CCOC(=O)c1cnc2sccn2c1=O	-0.5%	-2	?	0%
CC(=O)OCCN1CCN(C(=O)CN2C(=O)NC(c3ccccc3)(c3ccccc3)C2=O)CC1	2.4%	/	-5%	-1%

4 entries from above, reformatted.
The line under a structure holds: Rango complex inh | GLA inh pH 4.5 | Rango dissoc inh | miR-21 reporter
- COc1ccc(NC(=O)CN(C)C(=O)Cc2ccc(S(=O)(=O)N3CCOCC3)s2)cc1
    6.4% | / | 16% | /
- CCOC(=O)C1CCN(C(=O)CN2C(=O)COc3ccc(C(C)(C)C)cc32)CC1
    -1.1% | / | 3% | -1%
- Cc1ccc(Nc2nc(NCc3ccco3)c3ccccc3n2)cc1
    3.3% | -1 | 0% | 27%
- NNC(=O)c1ccc(N2CCCCCC2)c([N+](=O)[O-])c1
    0.0% | 0[21.1 µM] | 0% | 21%

Next results follow:
SMILES	Rango complex inh	GLA inh pH 4.5	Rango dissoc inh	miR-21 reporter
COc1ccc(Cc2nnc(NC(=O)C3CC(=O)N(CCc4ccc(F)cc4)C3)s2)cc1OC (stereo unspecified)	3.6%	/	4%	-6%
CC(C)(C)c1nc(SCC(=O)N2CC(=O)Nc3ccccc32)c2ccccc2n1	-1.6%	-7	-2%	-2%
C=CCN1C=C2C(=O)C(C)(OC(=O)CCC(=O)OC)C(=O)C(Br)=C2C=C1c1ccc(OC)cc1 (stereo unspecified)	?	2&-6	?	-10%
O=C(NCC(=O)N1CCN(c2ncc(C(F)(F)F)cc2Cl)CC1)c1ccc(Br)o1	-2.3%	/	8%	-3%
CCCCC(=O)Nc1ccccc1C(=O)N1CCOCC1	5.2%	5	-15%	-2%
CCOC(=O)Nc1ccc2c(CNC(C)c3ccccc3OC)cc(=O)oc2c1 (stereo unspecified)	0.5%	/	-8%	-1%
CCn1c(COc2ccccc2)nnc1SCC(=O)Nc1ccc(N2CCOCC2)cc1	2.9%	/	0%	5%
O=C1CS/C(=N\NC(=O)c2ccccc2)N1	0.8%	-10	12%	-11%
CC(OC(=O)c1ccc(Cl)nc1)C(=O)NCc1ccc2c(c1)OCO2 (stereo unspecified)	3.4%	/	27%	/
COC(=O)C1=C(C)N(C)C(=O)NC1c1ccc(O)c(OC)c1 (stereo unspecified)	0.3%	-5	5%	-2%
COC(=O)NC1CCC(CC2CCC(NC(=O)OC)CC2)CC1 (stereo unspecified)	-0.2%	2	2%	-3%
CC1(C)CC(=O)C/C(=N\NC(=O)c2cccs2)C1	?	0	?	-5%
O=C(COC(=O)CSc1ccc([N+](=O)[O-])cc1)NC1CCCCCCC1	-4.3%	/	2%	/
CNC(=O)CSc1nnnn1-c1ccc(C)cc1C	1.1%	11	18%	1%

A portion of the library; count on the stated rates, not on these rows.
